# Assay outcomes from PubChem.
# E coli growth: E. coli growth inhibition; actives 0.21% (n = 330,000); OD600 absorbance (no concentration beside the values); AID 1053175; Escherichia coli growth, OD600, 23 h; active compounds read low;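 active = OD600 absorbance below the run mean of sample wells minus 3.6 SD, in any replicate, cut at about 0.56 in these data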;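 note: stock transfer was 300 nL into about 60 µL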
# RanGTP-Imp inh: inhibitors of RanGTP-importin-beta interaction, primary screen, biochemical, FRET, CFP-Ran, YFP-importin-beta, homogeneous; cell-free CFP-Ran/YFP-importin-beta FRET ratio; inhibition, % (concentration not given with the values); actives 1.1% (n = 300,000);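 active = most replicates above 15%; inconclusive = exactly half above 15%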;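 note: 0% = DMSO wells and 100% = Ran loaded with GDP instead of GTP; wells of about 40 µL received 100 nL stock; the first replicate is given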
# UCH37 inh: blocks the human deubiquitinase UCH37; inhibition, % (test concentration not listed); Q9Y5K5; AID 588478; purified proteasome/UCH37, Ub-AMC cleavage fluorescence; actives 0.33% (n = 330,000);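 active = mean of two replicates above 20%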;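 note: 0% = compound-free wells with enzyme and 100% = wells lacking proteasome; stock transfer was 100 nL into about 20 µL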
# Target sequence (Q9Y5K5 whole entry, looked up): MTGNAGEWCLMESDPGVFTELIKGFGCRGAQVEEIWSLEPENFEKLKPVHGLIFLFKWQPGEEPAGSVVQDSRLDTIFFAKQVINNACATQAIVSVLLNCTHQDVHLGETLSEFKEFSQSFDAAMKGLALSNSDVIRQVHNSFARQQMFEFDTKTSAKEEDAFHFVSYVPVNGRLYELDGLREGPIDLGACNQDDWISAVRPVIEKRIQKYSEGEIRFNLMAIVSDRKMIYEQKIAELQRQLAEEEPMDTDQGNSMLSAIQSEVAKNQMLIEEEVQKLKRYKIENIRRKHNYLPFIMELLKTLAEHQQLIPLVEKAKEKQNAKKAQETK
#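 Test system – human UCH37 enzyme supplied as purified proteasome complex · Incubation – 30 min preincubation with enzyme, 25 min cleavage at room temperature · Detection – AMC fluorescence from Ub-AMC cleavage, excitation 355 nm, emission 460 nm · Benchmarks – no-proteasome wells (full inhibition) and compound-free wells (no inhibition)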
# Vif TR-FRET: inhibitors of Vif binding to APOBEC3G peptide, primary screen, biochemical, TR-FRET, GST-Vif 1-94, biotin-A3G peptide, dose response retest (AID 1117319) | inhibition, %, or IC50 in µM where a hit was titrated | actives 0.57% (n = 260,000) | TR-FRET GST-Vif / biotin-A3G peptide binding; higher % means a stronger effect; test concentration not given here; strong numbers were not always called active;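 active = above the screen mean plus three standard deviations and confirmed in dose response; inconclusive = results disagree or hit not tested in dose response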;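 note: Vif residues 1-94 fused to GST binding biotinylated APOBEC3G peptide 110-148; 0% = full assay without inhibitor and 100% = GST in place of GST-Vif; retest series ran down from 100 µM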
# HNF4A DNA FP: change in binding of human HNF4 alpha to DNA | P41235 | HNF4a-FITC DNA binding, fluorescence polarization, 1 h | activity change, % at 10 µM | actives 0.3% (n = 360,000); in the data active = activity change above about 30%, passing the limit was not always enough;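 note: controls were the assay level and a saturating level of protein; the project sought stronger binding though the title names inhibitors; some compounds called inactive have numbers as strong as hits; positive values seem to mean higher polarization but the record does not say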
# AF4-AF9 inh: inhibitors of human MLL-AF4/AF9 interaction. P42568. AlphaScreen, biotin-AF4 peptide binding to FLAG-AF9. inhibition, % at 10 µM. actives 0.47% (n = 350,000);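 active = every replicate reaching a set inhibition limit, whatever the replicate mean, cut at about 25% in these data; inconclusive = mean inhibition reaches that limit but some replicates miss it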;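 note: 0% = plate neutral control median and 100% = total signal loss; the record names both 10 and 1 µM as test concentration; the first replicate is given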
# Target sequence (P42568 whole entry, looked up): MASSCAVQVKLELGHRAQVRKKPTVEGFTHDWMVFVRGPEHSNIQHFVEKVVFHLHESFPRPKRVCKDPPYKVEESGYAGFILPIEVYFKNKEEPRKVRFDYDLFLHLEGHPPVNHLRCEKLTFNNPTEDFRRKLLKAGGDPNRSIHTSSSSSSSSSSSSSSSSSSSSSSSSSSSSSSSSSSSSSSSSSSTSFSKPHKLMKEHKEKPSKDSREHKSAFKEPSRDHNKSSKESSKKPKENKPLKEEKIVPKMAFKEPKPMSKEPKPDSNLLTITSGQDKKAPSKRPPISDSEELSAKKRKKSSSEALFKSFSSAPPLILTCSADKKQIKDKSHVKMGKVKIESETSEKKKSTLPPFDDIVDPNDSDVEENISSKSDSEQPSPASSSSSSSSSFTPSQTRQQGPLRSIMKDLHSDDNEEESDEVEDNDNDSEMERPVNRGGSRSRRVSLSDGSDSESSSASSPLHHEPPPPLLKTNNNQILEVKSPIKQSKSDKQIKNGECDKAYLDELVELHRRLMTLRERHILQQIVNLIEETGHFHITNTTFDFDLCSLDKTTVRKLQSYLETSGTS
# FGF22 binding: binders of recombinant human FGF22 by thermal shift; Q9HCT0; SYPRO orange fluorescence; percent of sucrose octasulfate shift, DMSO zero; calls only at 9.99 µM; actives 1.5% (n = 340,000); AID 651658;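 active = melting point raised past a set limit in the mean and every replicate; inconclusive = no clear call; three in four hits are not shown here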
# Target sequence (Q9HCT0 whole entry, looked up): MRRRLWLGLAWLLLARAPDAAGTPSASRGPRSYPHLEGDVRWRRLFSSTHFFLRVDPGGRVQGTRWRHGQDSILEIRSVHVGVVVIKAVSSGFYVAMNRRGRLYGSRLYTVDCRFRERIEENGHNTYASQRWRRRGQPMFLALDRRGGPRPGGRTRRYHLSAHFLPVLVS
# Numbers without * were called inactive; i = inactive; ? = inconclusive; / = no result given; & = joins results of further samples. An excerpt; the hit share may differ from the screen's.
SMILES,E coli growth,RanGTP-Imp inh,UCH37 inh,Vif TR-FRET,HNF4A DNA FP,AF4-AF9 inh,FGF22 binding
CCN(C[C@H]1N[C@@](C)(C(=O)OC)[C@H]2C(=O)N(C)C(=O)[C@@H]12)C(=O)c1ccccc1,0.7,/,4.7,0%,0.5,1.0,i
CCCN1Cc2cccc(C(=O)NC3CCCC3)c2C1=O,0.69,0.9,-1.5,-4%,1.8,/,/
O=C(NCC1CCCO1)c1ccc2c(=O)n(Cc3ccc(Cl)cc3)c(=S)[nH]c2c1 (stereo unspecified),0.72,-0.7,2.1,-13%,-1.9,-0.8,i
CCCCCCCC1CC(CSc2ncn[nH]2)OC1=O (stereo unspecified),0.71,-0.1,3.4,1%,-0.3,/,/
COc1ccc(C(=O)NNC(=O)CN2CCC(n3nnc4cc(C)ccc43)CC2)cc1,0.65,-2.3,1.3,/,0.8,-0.5,i
Cc1cccc2c1CCCC2=O,0.69,/,4.4,-2%,7.8,-2.4,i
CSc1nc2ccc(NS(=O)(=O)c3c(Cl)cccc3Cl)cc2s1,0.65,-2.0,0.7,/,6.6,/,/
O=C(Nc1cccn2ncnc12)C(F)(F)F,0.7,-2.2,1.4,33%,0.9,1.7,i
COc1ccc(C(CC(=O)O)NC(=O)Cc2ccccc2)cc1OC (stereo unspecified),0.69,-3.0,3.2,-5%,1.2,/,/
CCC(c1c(C)[nH]oc1=O)c1c(C)[nH]oc1=O,0.7,-1.9,5.0,2%,0.7,/,/
CCC1CCCCN1CCCNC(=O)c1ccc(CS(=O)(=O)c2ccccc2OC)o1 (stereo unspecified),0.69,1.5,1.8,2%,7.4,0.3,i
Cc1nc2sc3c(c2c(=O)o1)CCC3,0.7,1.7,-4.2,12%,-2.0,/,/
COc1ccc2oc(=O)c(-c3nc4ccccc4o3)cc2c1,0.71,0.5,-131,10%,-0.6,/,/
CC(=O)N/N=C(\C)CCc1ccccc1,/,4.5,/,2%,-0.7,-2.3,i
Cc1cccc(C)c1N1C(=O)CCC(C)(C)C1=O,0.69,-0.1,0.1,-1%,2.9,-5.9,i
COc1cccc(C2CC(c3ccccc3Cl)n3nc(N)nc3N2)c1 (stereo unspecified),0.71,1.6,1.5,15%,4.3,/,/
O=S(=O)(c1ccc(C2CCCCC2)cc1)N1CCOCC1,0.69,?,3.4,/,2.2,/,/
CCOC(=O)C1CCCN(c2nnnn2-c2ccccc2)C1 (stereo unspecified),0.68,0.1,2.1,1%,-0.1,/,/
O=C(N/N=C/c1ccco1)c1cc(-c2ccc3ccccc3c2)n[nH]1,/,-1.6,/,17%,3.7,/,/
Cc1ccc(C(=O)NC2CCCCCCC2)c(Cl)c1,0.69,2.2,1.8,/,-2.6,-8.3,i

# Quoted at random: 3 compounds from above.
SMILES,E coli growth,RanGTP-Imp inh,UCH37 inh,Vif TR-FRET,HNF4A DNA FP,AF4-AF9 inh,FGF22 binding
COc1ccc2oc(=O)c(-c3nc4ccccc4o3)cc2c1,0.71,0.5,-131,10%,-0.6,/,/
Cc1ccc(C(=O)NC2CCCCCCC2)c(Cl)c1,0.69,2.2,1.8,/,-2.6,-8.3,i
COc1cccc(C2CC(c3ccccc3Cl)n3nc(N)nc3N2)c1 (stereo unspecified),0.71,1.6,1.5,15%,4.3,/,/

# More compounds:
SMILES,E coli growth,RanGTP-Imp inh,UCH37 inh,Vif TR-FRET,HNF4A DNA FP,AF4-AF9 inh,FGF22 binding
C=CCSc1nnc(NC(=O)c2ccc(Cl)nc2)s1,0.7,2.0,2.5,-14%,-0.9,/,/
CC(=O)Nc1ccc(/C=N/N2CCCCC2)cc1,/,0.6,/,1%,-3.2,2.7,i
C/C(=N\N)c1c(-c2ccccc2)c2cc(C)ccc2[nH]c1=O,/,-0.8,/,28%,-1.4,-0.9,i
Cc1cn(CC(=O)NCCNc2ccc([N+](=O)[O-])cn2)c(=O)[nH]c1=O,/,/,/,/,2.0,0.3,i
COc1cccc(-c2csc3ncnc(Sc4nnnn4C)c23)c1,0.7,/,2.1,/,0.9,0.9,i
COc1ccc(N(C(=O)c2snc(C(N)=O)c2N)C(C(=O)NCc2ccc(F)cc2)c2ccc(C)o2)c(OC)c1 (stereo unspecified),0.7,2.9,-17,/,1.7,2.6,i
O=C(O)COc1ccc(/C=N/NC(=O)C2CCCN2S(=O)(=O)c2ccc(Cl)cc2)cc1 (stereo unspecified),/,-2.0,/,-1%,-1.2,/,/
CCOC(=O)NC(=O)CSc1nc2ccc([N+](=O)[O-])cc2[nH]1,0.68,2.2,11,/,-1.4,-3.2,/
COc1ccc(C(=O)COc2ccc3ccc(=O)oc3c2)c(OC)c1,0.72,3.3,-93,/,2.6,-6.0,i
CCn1c(COC(=O)CNC(=O)c2ccccc2)nc2cc(S(=O)(=O)N(C)C)ccc21,0.66,0.2,3.4,-2%,-1.1,1.8,i
COc1cc(/C=N/NC(=O)c2ccoc2C)ccc1O,/,7.9,/,?,4.2,4.5,i
COc1ccccc1OCC(=O)NC1CC(C)(C)NC(C)(C)C1,0.66,?,0.0,/,0.3,-0.6,i
CN1CCN(c2ccc(S(=O)(=O)N3CCOCC3)cc2NC(=O)Cc2ccccc2F)CC1,0.67,/,-0.1,1%,-0.3,-1.5,i
CCCn1c(SCC(=O)c2cc(C)ccc2C)n[nH]c1=O,0.72,4.2,2.7,>100µM*,-0.7,/,/
CC(C)C(c1nnnn1Cc1ccc(F)cc1)N1CCN(c2ccc(O)cc2)CC1 (stereo unspecified),0.71,-3.0,1.3,3%,-3.2,8.5,/
CCOC(=O)C1CCCN(C(=O)C2c3ccccc3Oc3ccccc32)C1 (stereo unspecified),0.61,-0.2,-5.4,-7%,-109,/,/
COc1ccc(CN2C(=O)C(CC(=O)NCCN3CCOCC3)CC(C(=O)N(C)C)=C2C)cc1 (stereo unspecified),/,/,/,-2%,-2.5,-2.1,i
CCOc1ccccc1NC(=O)CN1CCN(Cc2ccccc2)CC1,0.67,-2.4,0.3,0%,-0.6,-4.9,i
O=C(Nc1ccc(N2CCOCC2)cc1)c1ccc(S(=O)(=O)N2CCCCC2)cc1,0.67,3.3,5.7,1%,-0.6,/,/
CC(C)c1cc(C(=O)OCC(=O)NC2CCS(=O)(=O)C2)c(O)c(C(C)C)c1 (stereo unspecified),/,/,/,-9%,-1.1,-3.0,i
COc1cc(C(=O)NCc2ccc(F)cc2)cc(Cl)c1OC,0.65,-1.6,1.1,1%,-3.6,/,/
COc1ccc2nc(/C=N/NC(=O)CCCCCNC(=O)OC(C)(C)C)ccc2c1,/,-2.1,/,2%,-1.8,0.1,i
O=C(c1[nH]c(C(F)(F)F)nc1-c1ccccc1)N1CCN(c2c(Cl)cncc2Cl)CC1,/,/,/,/,-1.2,-1.4,i
Cc1cc2nc3c(nc2cc1C)C(O)=C3O,0.62,2.0,5.1,?,0.4,-1.3,i
Cc1ccc2c(CN3CCCCC3C)cc(=O)oc2c1C (stereo unspecified),0.65,-15,1.3,7%,1.0,-13,i
O=C(Nc1ccccc1Cl)C(Cl)C(=O)c1ccccc1 (stereo unspecified),0.69,/,3.0,0%,7.2,-4.1,i
Nc1nc(SCC(=O)NC2CCCc3ccccc32)n[nH]1 (stereo unspecified),0.7,0.5,0.6,/,-0.1,-6.2,/
CCCCS(=O)(=O)N1CCC(C(=O)Oc2ccc(Cl)cc2)CC1,0.68,2.4,3.8,/,-1.9,-0.2,i
COc1cc(Cl)cc2c1Sc1ccccc1/C2=C/CCN(C)C,0.61,11,3.1,0%,-0.3,15,/
CN1CCN(c2nc3c(c(=O)[nH]c(=O)n3C)n2CCCSc2nnnn2-c2ccccc2)CC1,0.72,0.9,8.0,/,3.1,1.7,i
COC(=O)Cn1cccc1C(=O)c1ccccc1,0.74,2.2,2.1,-5%,-0.2,/,/
C/C(=N\Nc1ccc2nncn2n1)c1ccco1,/,-8.2,/,8%,0.0,-2.6,i
Cc1cc(C(=O)COC(=O)C2=NNC(=O)CC2)c(C)n1-c1cccc(C(F)(F)F)c1,0.67,6.3,4.2,-3%,3.2,/,/
Cc1cc(Br)ccc1NCc1ccccn1,0.63,6.5,5.3,1%,1.1,/,/
COc1ccc(OC)c(S(=O)(=O)NCc2nc3nc(C)cc(C)n3n2)c1,0.65,0.9,3.1,1%,-1.5,-3.5,i
O=C1CC(C(=O)NCCc2ccccc2)SC(=Nc2ccccc2)N1 (stereo unspecified),0.64,-1.7,5.9,32%,-0.3,2.3,i
COc1ccc(CNC(=O)N2CCN(C(=O)c3ccccc3)CC2)cc1,0.62,/,0.6,-3%,0.9,-4.8,i
CC1C(=O)CC2C3(C)CCC2(C(C)C(=O)O)C(=O)C13 (stereo unspecified),/,/,/,/,3.5,-2.4,i
CCO[C@H]1OC(C(=O)NCc2ccccc2)=C[C@@H](c2cn(C(C)=O)c3ccccc23)[C@@H]1CCCO,/,-0.2,1.0,8%,1.8,-20&3.3,i
COc1ccc(NC(=O)C2(C)CCN2Cc2ccc(C(C)C)cc2)cc1OC (stereo unspecified),/,/,/,/,0.6,0.7,i
O=[N+]([O-])c1nn(-c2ccccc2)n(O)c1=NCCc1ccccc1,0.65,-2.8,6.2,/,-1.1,/,/
O=C1c2ccccc2C(=O)N1CCc1nc(-c2ccc(Cl)cc2)no1,0.71,0.8,2.6,7%,-0.4,/,/
CC1=CC(c2ccc(Cl)cc2)n2ncnc2N1 (stereo unspecified),0.69,?,-9.3,/,1.3,/,/
Cc1cc[n+](-c2[nH]c(=O)sc2/C=N/NC(=O)c2ccccc2[O-])cc1C,/,5.9,/,?,-5.0,5.2,i
COc1ccc(C(=O)N[C@H]2CCCCNC2=O)cc1OC1CCN(C(C)C)CC1,0.7,0.1,4.4,/,-3.1,2.5,i
CCN(CC)S(=O)(=O)c1ccc(NC(=O)c2c(-c3ccccc3)noc2C)cc1,0.69,-2.9,3.1,-2%,2.7,-3.1,i
Cc1ccc(C)c(C(=O)CCC(=O)N2CCN(c3ncccn3)CC2)c1,0.7,-13,-3.3,2%,0.8,9.1,i
Cc1ccc(N(CC(=O)NC2CCCCC2)C(=O)CCCC(=O)Nc2ccccn2)c(C)c1,0.67,3.8,4.1,/,-3.7,1.5,i
CCC(C)(C(=O)NC1CCCCC1)N(C(=O)c1ccccn1)c1ccccc1 (stereo unspecified),0.71,6.7,1.5,-1%,4.8,/,/
CCC(=O)Nc1cccc(-c2cn3ccccc3n2)c1,0.64,-2.1,-21,/,4.1,/,/
CN(C(=O)C1CCOC1)c1nnc(C2CCOC2)s1 (stereo unspecified),0.72,6.8,-0.1,-1%,0.1,/,/
COc1cc(/C=N/NC(=O)CNC(=O)c2ccncc2)ccc1O,/,-0.8,/,-5%,2.9,-1.7,i
O=C(COC(=O)Cn1cnc2ccccc21)NCCc1ccc(Cl)cc1,0.65,-2.1,1.9,3%,0.8,/,/
Cc1cc(C)c(S(=O)(=O)c2ccc(F)cc2C)c(Cl)n1,0.69,-1.5,-1.3,-13%,-1.9,-2.3,i
CCOC(=O)C1CCN(C(=O)COC(=O)/C=C/c2ccc([N+](=O)[O-])cc2)CC1,0.65,/,3.1,/,-0.7,1.1,i
Cc1nnc(N2C(=O)C(O)=C(C(=O)c3ccco3)C2c2ccc(C(C)C)cc2)s1 (stereo unspecified),0.74,-14,4.3,/,-8.3,/,/
O=C(CSc1oc(-c2ccccc2)nc1S(=O)(=O)c1ccc(F)cc1)NCC1CCCO1 (stereo unspecified),0.66,-1.4,0.1,9%,6.3,/,/
CCc1cccc(OCC(=O)Nc2ccc(S(=O)(=O)N3CCCC3)cc2)c1,0.65,2.6,2.0,/,-1.4,0.0,i
COc1ccccc1N(CC(=O)N1CCN(c2ccccc2)CC1)S(=O)(=O)c1ccc(C)cc1,0.71,-2.2,3.0,4%,6.0,-4.7,i
